# High-throughput results from PubChem BioAssay.
# PABP FP inh: blocks human PABP binding to poly(A) RNA; hit rate 1% among 290,000; inhibition, % at 35 µM; P11940; fluorescence polarization;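 active means 50% or more with normal probe brightness, or confirmed in later tests; about a fifth of its hits are not listed in these tables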;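 further: calls also rest on retests at 20 µM and on dose response follow-up; controls were probe without protein and protein plus probe with vehicle; some compounds called inactive have numbers as strong as hits; many hits fall short of the cut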
# Target sequence (P11940 whole entry, looked up): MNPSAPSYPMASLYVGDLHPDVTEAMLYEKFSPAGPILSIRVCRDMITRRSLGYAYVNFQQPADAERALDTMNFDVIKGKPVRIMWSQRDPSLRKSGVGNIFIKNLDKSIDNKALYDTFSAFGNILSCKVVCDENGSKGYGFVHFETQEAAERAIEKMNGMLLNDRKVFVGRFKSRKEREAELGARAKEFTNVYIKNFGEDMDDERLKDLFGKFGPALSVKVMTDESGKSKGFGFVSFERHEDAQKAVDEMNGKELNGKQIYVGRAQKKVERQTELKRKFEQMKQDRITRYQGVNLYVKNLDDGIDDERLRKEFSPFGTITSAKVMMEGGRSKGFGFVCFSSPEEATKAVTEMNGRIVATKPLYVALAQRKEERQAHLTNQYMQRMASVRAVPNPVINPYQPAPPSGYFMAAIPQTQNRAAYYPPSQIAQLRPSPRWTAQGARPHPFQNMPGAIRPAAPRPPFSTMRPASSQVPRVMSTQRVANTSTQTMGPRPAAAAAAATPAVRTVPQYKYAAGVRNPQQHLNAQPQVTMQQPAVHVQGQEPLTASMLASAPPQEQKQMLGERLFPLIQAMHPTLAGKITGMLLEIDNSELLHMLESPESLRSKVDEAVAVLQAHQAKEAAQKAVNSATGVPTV
# eIF4H FP inh: inhibitors of RNA binding by human eIF4H. inhibition, % at 35 µM. Q15056. hit rate 0.94% among 290,000. AID 2012. eIF4H fluorescence polarization binding assay;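 active means 50% or more with normal probe brightness, or confirmed in later tests; about a fifth of its hits are not listed in these tables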;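 further: calls also rest on retests at 20 µM and on dose response follow-up; 0% = protein and probe with vehicle and 100% = probe without protein; strong numbers were not always called active; many hits fall short of the cut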
# CSC inhib: blocks cancer stem cells. AID 2717. cancer stem cell-like cells viability, luminescence. hit rate 1.1% among 300,000. inhibition, % at 7.5 µM;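 active means mean at 75% or more and at least half the replicates too; tested in HMLE shEcad cells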;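 further: 0% = median of negative and 100% = median of positive control wells; the first replicate is given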
# MT1-MMP act inh: inhibitors of human MT1-MMP activation; P50281; HT1080 RFP-PRO-GFP cells, GFP/RFP ratio fluorescence, overnight; percent of plate control window, DMSO zero; GFP/RFP ratio change, % at 20 µM; hit rate 0.061% among 360,000;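 active means GFP/RFP ratio change of at least 30% with cell ATP level not reduced by more than half and red fluorescence within 50% of control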; further: strong numbers were not always called active
#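 Test system: HT1080 cells expressing an RFP-PRO-GFP fluorescent reporter construct / Compound dosing: single-point 20 µM compound, 1% DMSO / Schedule: cells overnight before dosing, compound overnight, 37 °C, 5% CO2 / Evaluation: GFP/RFP fluorescence ratio / Control set: DMSO and RFP-L50D-GFP cell wells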
# Rce1 inhib: yeast Ras-converting enzyme inhibition; Q03530; yeast membranes, quenched prenylated peptide cleavage fluorescence; calls only; hit rate 0.27% among 290,000;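 active means fall in fluorescence gain of 50% or more versus controls, with final raw signal at or below 3038400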;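 further: plate controls were neutral control wells for no effect and wells lacking membranes for full effect; tested at 10 µM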
# Env fusion inh: blocks HIV Env-driven cell-cell fusion | HeLa-JRFL Env/CEM21 cell fusion, luciferase | inhibition, % at 12.3 µM | hit rate 1.1% among 360,000;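 active means mean replicate inhibition score of at least 50 and every replicate individually at or above 50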;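 further: 0% = plate neutral controls and 100% = maraviroc near 300 nM; one replicate is shown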
# Yeast UUG start: yeast start codon fidelity modulation; S. cerevisiae UUG-firefly luciferase reporter, luminescence/redox ratio; activity score, % at 18.7 µM; hit rate 0.13% among 350,000;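 active means replicate mean at a twofold rise or more, about +100% in these data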;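 further: firefly luciferase made from a UUG start codon reports start codon fidelity; reporter light over untreated wells divided by growth signal over untreated wells; some hits fall short of that in this replicate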
# eIF4H FP inh retest: recorded beside eIF4H FP inh, whose call it bears; inhibition, %; compound at 20 µM; confirmation average;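 mean of two retest wells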
# PABP FP inh retest: second read-out of PABP FP inh, no call of its own (marks repeat the call); inhibition, %; compound at 20 µM; confirmation repeats;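 mean of two retest wells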
# MT1-MMP act inh RFP: recorded beside MT1-MMP act inh, whose call it bears; RFP signal change, %; measured here: RFP expression control read;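 0 = vehicle wells; hits needed this value within 50% of zero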
# An asterisk follows results filed as active; i = inactive; x = not tested or not shown. Only part of the results is shown; count on the stated rates, not on these rows.
SMILES,PABP FP inh,eIF4H FP inh,CSC inhib,MT1-MMP act inh,MT1-MMP act inh RFP,Rce1 inhib,Env fusion inh,Yeast UUG start,others
CCCC1C(C(=O)OCC)=C(C)NC(C)=C1C(=O)OCC,0,-1,-3,1,-6,i,x,-4,
C/C=C1\COC(C(=O)NCCCN2CCCC2=O)(C(F)(F)F)C=C1C=C(C)C (centres undefined),x,x,7,0,2,i,5,10,
CCOCCCNC(=O)C(c1ccc(Cl)cc1)N1CCC2(CC1)OCCO2 (centres undefined),-4,-2,-13,-4,5,i,-82,-1,
Nc1cccc2nsnc12,9,9,-4,-1,2,i,-3,1,
CC(=O)N(C)c1ccc(N=Nc2ccc3ncccc3c2)cc1,x,x,x,4,-8,x,-38,-43,
O=C(NCC1CCCO1)C(=Cc1cccc([N+](=O)[O-])c1)C(=O)NCC1CCCO1 (centres undefined),4,-1,7,-4,-8,x,29,x,
Cc1ccc(NS(=O)(=O)c2ccc3c(c2)oc(=O)n3C)cc1C,-7,-5,10,-1,-10,i,10,-15,
Cc1ccc(S(=O)(=O)Nc2cccc(C(=O)NCC(c3ccc(F)cc3)N3CCOCC3)c2)cc1 (centres undefined),x,x,1,5,-2,x,-60,21,
Cn1cccc1C(=O)OCC(=O)NCCCc1ccccc1,x,x,-15,-1,4,x,15,-3,
N#CC1=C2SCN(c3ccccc3)CN2C(=O)CC1c1ccccc1Cl (centres undefined),11,-2,-3,7,6,i,-16,-43,
COc1ccc(Cl)cc1NC(=O)CNCC(c1ccccc1)N(C)C (centres undefined),-8,-1,4,-2,3,i,20,x,
CC(C)OC(=O)c1cc2ccccc2[nH]1,1,4,12,11,-7,i,8,-19,
O=C(Nc1ccccc1)Nc1cnccn1,6,-2,3,-2,1,i,9,-27,
CCc1cc(C(c2cccc(OC)c2)N2CCOCC2)c(NC(=O)c2ccccc2)s1 (centres undefined),-9,-11,11,4,2,i,x,11,
Cc1nnc(NC(=O)CSc2nnc(Cc3cccn3C)n2-c2cccc(C(F)(F)F)c2)s1,16,8,-12,2,5,i,-16,-17,
COC(=O)c1ccc(NC(=O)CCc2c(C)nc3ncnn3c2C)cc1,-5,-3,-5,-3,5,i,-24,-18,
Cc1cnn(CCC(=O)NNC(=S)Nc2cccc(Cl)c2)c1,-2,1,-1,-2,4,i,0,-1,
Cc1cccc(Nc2ccc(C(=O)N3CCOCC3)cn2)c1,-1,-2,10,3,1,i,5,x,
COc1cc(NS(=O)(=O)c2ccc(NC(C)=O)cc2)nc(OC)n1,5,14,-19,1,2,i,6,-18,
N#CCCN1CCn2c1nc1ccccc12,4,-4,-10,-2,2,i,-10,-44,
C=C(C)CC1Nc2ccccc2NC1CC(=C)C (centres undefined),46,39,x,-18,7,i,32,-10,
COc1cc(CN2CCN(C(O)(c3ccccc3)c3ccccc3)CC2)cc(OC)c1OC,-1,-3,4,1,7,i,-14,-9,
O=[N+]([O-])c1cc(S(=O)(=O)C(F)(F)F)ccc1Sc1nc2ccccc2s1,-3,-7,101*,-4,-1,i,x,-24,
CCCNC(=O)c1ccc2c(=O)c(O)c(-c3ccsc3)[nH]c2c1,13,6,6,-5,2,i,x,-15,

# Next section (seven carried over from the part before).
SMILES,PABP FP inh,eIF4H FP inh,CSC inhib,MT1-MMP act inh,MT1-MMP act inh RFP,Rce1 inhib,Env fusion inh,Yeast UUG start,others
Cc1cccc(Nc2ccc(C(=O)N3CCOCC3)cn2)c1,-1,-2,10,3,1,i,5,x,
COc1cc(NS(=O)(=O)c2ccc(NC(C)=O)cc2)nc(OC)n1,5,14,-19,1,2,i,6,-18,
N#CCCN1CCn2c1nc1ccccc12,4,-4,-10,-2,2,i,-10,-44,
C=C(C)CC1Nc2ccccc2NC1CC(=C)C (centres undefined),46,39,x,-18,7,i,32,-10,
COc1cc(CN2CCN(C(O)(c3ccccc3)c3ccccc3)CC2)cc(OC)c1OC,-1,-3,4,1,7,i,-14,-9,
O=[N+]([O-])c1cc(S(=O)(=O)C(F)(F)F)ccc1Sc1nc2ccccc2s1,-3,-7,101*,-4,-1,i,x,-24,
CCCNC(=O)c1ccc2c(=O)c(O)c(-c3ccsc3)[nH]c2c1,13,6,6,-5,2,i,x,-15,
COc1c(-c2ccc([N+](=O)[O-])cc2[N+](=O)[O-])c(=O)n(C)c(=O)n1C,-4,-12,-8,5,6,i,18,8,
O=C(CSc1ccc2nnc(-c3cccnc3)n2n1)NCc1ccc2c(c1)OCO2,1,6,-14,-2,2,i,-17,-4,
CS(=O)(=O)c1nc(-c2ccco2)cc(C(F)(F)F)n1,6,2,112*,x,x,i,x,x,
Cc1ccc(-n2c(-c3ccccc3)n[nH]c2=S)cc1,6,-12,-10,0,1,i,-27,-16,
CCOc1cc(/C=N/OC(C)=O)ccc1OCc1ccccc1,5,-1,-9,1,-1,i,5,-15,
CCC(=O)Nc1ccc2nc(C)n(Cc3ccccc3Cl)c(=O)c2c1,-6,-2,-11,6,-3,i,x,-20,
CC(NC(=O)CSc1nnc(CC(=O)Nc2ccc(Cl)c(Cl)c2)n1C)c1ccccc1 (centres undefined),23,9,-11,-2,-3,i,-78,-18,
CCNc1cc(N2CCN(S(=O)(=O)c3ccc4c(c3)CCCC4)CC2)ccc1[N+](=O)[O-],1,4,1,-4,-5,i,-47,-6,
CCN(CCn1cccn1)C(=O)CC1C(=O)NCCN1Cc1ccc(F)c(F)c1 (centres undefined),0,3,-2,-1,-1,i,9,x,
CCCn1c(=O)c2ccccc2n2c(SCC(=O)c3ccc(CC)cc3)nnc12,-11,-3,-9,2,11,i,x,-1,
CCC(C)(C)NC(=O)Cn1c(=O)oc2cc(S(=O)(=O)N3CC(C)CC(C)C3)ccc21 (centres undefined),-14,-9,-12,0,-6,i,-18,-11,
CCOc1cccc(=O)c2c(C)n(C)c(C)c12,69*,60*,-2,-8,5,i,18,3,
Cc1ccc(C(=O)NC(C)C(c2cccs2)N2CCOCC2)cc1C (centres undefined),x,x,x,2,4,x,-4,-18,
COc1ccc(NC(=O)Nc2cc(C)ccc2OC)cc1,-14,2,4,2,-2,i,-32,-8,
Cc1cccc(C(=O)N2CCN(c3ccc([N+](=O)[O-])c(N4CCOCC4)c3)CC2)c1,7,2,9,8,-1,i,19,5,
CC(C)C(NC(=O)OCc1ccccc1)C(=O)NC(Cc1ccc(O)cc1)C(=O)O (centres undefined),-5,-1,-14,-2,4,i,-10,1,
C=CCNC(=O)/C(=C\C=C\c1ccccc1)NC(=O)c1ccc(OCCCC)cc1,-4,4,-14,0,-1,i,x,-2,
CC(C)CNC(=O)CC(c1ccccc1)c1c(O)ccc2ccccc12 (centres undefined),3,-7,10,-10,-5,i,-29,-2,
Clc1ccc(CSc2nnc(-c3ccccn3)n2Cc2ccco2)c(Cl)c1,-10,7,35,-4,-9,i,-34,-11,
Cc1ccc(S(=O)(=O)N(C)c2ccccc2)cc1,1,-1,-6,1,4,i,-23,-12,
COc1ccccc1-c1ccc2c(c1)C(C)(Cc1cccc(F)c1)C(=O)N2 (centres undefined),x,x,x,-7,-14,x,73*,-9,
Cc1ccc(-n2c(SCC(=O)O)nc3c(sc(=S)n3-c3ccc(C)c(C)c3)c2=O)cc1,11,2,x,6,0,i,-11,-9,
CC(=O)c1cccc(Nc2cc(C)nc3ccccc23)c1,3,1,-1,-2,4,i,0,-16,
O=C(COC(=O)c1cc[n+]([O-])cc1)Nc1ccccc1Cl,-3,-3,-6,2,7,i,-10,x,
COc1cccc(C(NC(C)=O)c2nc(-c3cnc4ccccc4c3)cs2)c1 (centres undefined),x,x,x,1,-3,x,-145,-15,
Cc1ccccc1NC(=O)CN1C(=O)COc2ccc(S(=O)(=O)N3CCCC3)cc21,0,-9,-35,-5,2,i,15,-13,
Cc1ccc(NC(=O)CSCCc2ccccn2)nc1,5,3,x,3,0,i,-81,x,
COCCNc1nnc(SC(C)C(=O)Nc2c(C)n(C)n(-c3ccccc3)c2=O)s1 (centres undefined),5,54,-2,-1,3,i,-327,-17,eIF4H FP inh retest=-4;PABP FP inh retest=8
Cc1ccc(C(=O)NC(=S)Nc2ccc(NC(=O)c3cccs3)cc2)cc1[N+](=O)[O-],-4,-5,-8,0,0,i,-10,x,
N#Cc1ccccc1S(=O)(=O)N1CCN(C(=O)c2cc(=O)[nH]c3ccccc23)CC1,x,x,6,-3,-1,x,8,5,
O=C(OCC(=O)N1CCc2ccccc21)c1n[nH]c(=O)c2ccccc12,x,x,-8,-1,-1,x,x,-23,
Cn1c(=O)cc(OCC(=O)N2CCN(c3ccccc3F)CC2)c2ccccc21,23,0,-13,4,4,i,9,x,
CN1C(=O)/C(=C\c2ccncc2)SC1=Nc1ccccc1,4,10,6,0,-3,i,x,x,
COc1ccc(-c2csc3ncnc(Sc4nnnn4C)c23)cc1,x,x,52,-9,-9,x,42,-6,
Cc1ccc(S(=O)(=O)N2CCN(C(=O)C3CCN(c4ncnc5sc(C)c(C)c45)CC3)CC2)c(C)c1,x,x,x,9,-28,x,14,-5,
CN(C)c1ccc(-c2nc3cc(N)ccc3o2)cc1,-11,-10,15,3,-1,i,-48,-58,
O=C(NCc1ccccn1)c1ccc(S(=O)(=O)Nc2ccccc2F)cc1,0,-8,4,0,2,i,10,-23,
COC(=O)c1ccc(C2/C(=C(/O)c3ccc(OC(C)C)cc3)C(=O)C(=O)N2c2cc(C)on2)cc1 (centres undefined),1,2,2,3,1,i,x,-19,
CSc1ncccc1C(=O)OCc1c(F)cccc1Cl,-1,-3,-10,-1,-3,i,1,-10,
COc1ccc(N(CC(=O)Nc2ccc(OC)c(OC)c2)S(=O)(=O)c2ccccc2)cc1Cl,12,-7,-16,1,-3,i,-2,-4,
COc1ccc(C2/C(=C(/O)c3ccc4c(c3)CC(C)O4)C(=O)C(=O)N2CCN2CCOCC2)cc1 (centres undefined),-10,-8,-10,3,2,i,x,-3,

# Reprinted at random: 3 entries already listed, in no set order.
SMILES,PABP FP inh,eIF4H FP inh,CSC inhib,MT1-MMP act inh,MT1-MMP act inh RFP,Rce1 inhib,Env fusion inh,Yeast UUG start,others
COc1c(-c2ccc([N+](=O)[O-])cc2[N+](=O)[O-])c(=O)n(C)c(=O)n1C,-4,-12,-8,5,6,i,18,8,
Cn1c(=O)cc(OCC(=O)N2CCN(c3ccccc3F)CC2)c2ccccc21,23,0,-13,4,4,i,9,x,
C/C=C1\COC(C(=O)NCCCN2CCCC2=O)(C(F)(F)F)C=C1C=C(C)C (centres undefined),x,x,7,0,2,i,5,10,
